Source: PubChem BioAssay (several laboratories)
MT1-MMP act inh: blockers of MT1-MMP proenzyme processing, primary screen, HT1080 RFP-PRO-GFP cells, GFP/RFP fluorescence; Matrix metalloproteinase-14 (Homo sapiens), P50281; GFP/RFP ratio fluorescence, overnight; percent of plate control window, DMSO zero; GFP/RFP ratio change, % at 20 µM; actives 0.061% (n = 360,000); AID 651647, 2012;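 active = GFP/RFP ratio change of at least 30% with cell ATP level not reduced by more than half and red fluorescence within 50% of control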; also: strong numbers were not always called active
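Material – HT1080 RFP-PRO-GFP cells · Control set – DMSO wells and RFP-L50D-GFP cells · Incubation – overnight cell settling, then overnight compound exposure, 37 °C, 5% CO2 · Compound dosing – single-point 20 µM compound, 1% DMSO · Read-out – GFP/RFP fluorescence ratio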
Yeast UUG start: modulators of yeast start codon fidelity, primary screen, whole organism, S. cerevisiae, single point, plate reader; S. cerevisiae UUG-firefly luciferase reporter, luminescence/redox ratio; activity score, % at 18.7 µM; actives 0.13% (n = 350,000); AID 602363, 2012;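 active = replicate mean at a twofold rise or more, about +100% in these data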;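 also: firefly luciferase made from a UUG start codon reports start codon fidelity; reporter light over untreated wells divided by growth signal over untreated wells; some hits fall short of that in this replicate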
Rce1 inh: yeast Rce1p protease inhibitors, primary screen, biochemical, fluorescence, cell-free homogeneous | actives 0.27% (n = 290,000) | CAAX prenyl protease 2 (Saccharomyces cerevisiae (strain ATCC 204508 / S288c)), Q03530 | AID 2563, 2010 | calls only | yeast membranes, quenched prenylated peptide cleavage fluorescence;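 active = fall in fluorescence gain of 50% or more versus controls, with final raw signal at or below 3038400; inconclusive = same 50% fall but final raw signal above 3038400; inactive = fall in fluorescence gain under 50%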;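 also: plate controls were neutral control wells for no effect and wells lacking membranes for full effect; tested at 10 µM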
Target sequence (Q03530 whole entry, looked up): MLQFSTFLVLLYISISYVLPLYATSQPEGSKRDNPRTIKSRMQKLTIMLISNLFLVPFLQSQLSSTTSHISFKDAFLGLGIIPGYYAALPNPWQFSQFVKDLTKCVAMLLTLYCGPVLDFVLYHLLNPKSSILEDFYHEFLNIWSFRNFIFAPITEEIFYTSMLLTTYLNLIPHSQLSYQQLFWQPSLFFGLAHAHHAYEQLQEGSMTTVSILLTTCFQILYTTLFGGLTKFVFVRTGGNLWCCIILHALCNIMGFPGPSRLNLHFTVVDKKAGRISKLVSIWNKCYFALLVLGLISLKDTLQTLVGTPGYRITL
HIV Env fusion: inhibitors of HIV-1 Env-driven cell-cell fusion, primary screen, HeLa-JRFL effector, CEM21 target cells, luciferase | inhibition, % at 12.3 µM | actives 1.1% (n = 360,000) | AID 651610, 2012;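 active = mean replicate inhibition score of at least 50 and every replicate individually at or above 50; inconclusive = only one of the two criteria met; inactive = mean below 50 and not all replicates reaching 50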;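 also: 0% = plate neutral controls and 100% = maraviroc near 300 nM; one replicate is shown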
CSC inhib: cancer stem cell viability inhibitors, primary screen, luminescence; cancer stem cell-like cells viability; inhibition, % at 7.5 µM; actives 1.1% (n = 300,000); AID 2717, 2010;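 active = mean at 75% or more and at least half the replicates too; inconclusive = mean and replicates disagree; tested in HMLE shEcad cells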;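 also: 0% = median of negative and 100% = median of positive control wells; the first replicate is given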
eIF4H FP inh: human eIF4H binding inhibitors, primary screen, translation initiation inhibitor project, biochemical, uHTS, fluorescence polarization; eIF4H fluorescence polarization binding assay; inhibition, % at 35 µM; actives 0.94% (n = 290,000); AID 2012, 2009;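 active = 50% or more with normal probe brightness, or confirmed in later tests; inconclusive = above 50% with abnormal brightness, or retests that disagree; inactive = below 50% or failed in later tests; about a fifth of its hits are not listed in these tables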;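 also: calls also rest on retests at 20 µM and on dose response follow-up; 0% = protein and probe with vehicle and 100% = probe without protein; strong numbers were not always called active; many hits fall short of the cut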
PABP FP inh: PABP poly(A) RNA binding inhibitors, primary screen, biochemical, fluorescence polarization, uHTS; actives 1% (n = 290,000); inhibition, % at 35 µM; Polyadenylate-binding protein 1 (Homo sapiens), P11940; AID 2014, 2009;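 active = 50% or more with normal probe brightness, or confirmed in later tests; inconclusive = above 50% with abnormal brightness, or retests that disagree; inactive = below 50% or failed in later tests; about a fifth of its hits are not listed in these tables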;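 also: calls also rest on retests at 20 µM and on dose response follow-up; controls were probe without protein and protein plus probe with vehicle; some compounds called inactive have numbers as strong as hits; many hits fall short of the cut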
Target sequence (P11940 whole entry, looked up): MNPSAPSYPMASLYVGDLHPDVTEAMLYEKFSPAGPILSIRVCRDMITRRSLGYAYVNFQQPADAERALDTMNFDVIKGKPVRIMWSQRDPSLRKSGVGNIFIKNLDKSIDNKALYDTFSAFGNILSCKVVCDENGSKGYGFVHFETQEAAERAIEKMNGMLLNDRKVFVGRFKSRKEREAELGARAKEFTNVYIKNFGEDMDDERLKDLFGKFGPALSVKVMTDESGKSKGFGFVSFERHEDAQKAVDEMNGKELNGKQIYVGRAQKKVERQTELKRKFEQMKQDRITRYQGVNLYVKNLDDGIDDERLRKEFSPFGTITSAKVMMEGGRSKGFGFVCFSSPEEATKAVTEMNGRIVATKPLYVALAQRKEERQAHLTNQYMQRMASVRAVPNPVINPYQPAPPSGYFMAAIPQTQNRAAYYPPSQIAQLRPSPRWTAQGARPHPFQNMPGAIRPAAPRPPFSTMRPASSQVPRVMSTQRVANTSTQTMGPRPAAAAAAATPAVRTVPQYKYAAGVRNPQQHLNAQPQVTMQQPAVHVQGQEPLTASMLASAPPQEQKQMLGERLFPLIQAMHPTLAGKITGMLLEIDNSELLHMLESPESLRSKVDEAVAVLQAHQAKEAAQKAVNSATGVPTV
eIF4H FP inh retest: further read-out of eIF4H FP inh, marked with its call; inhibition, %; compound at 20 µM; confirmation average;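 mean of two retest wells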
PABP FP inh retest: also measured in PABP FP inh; calls as there; inhibition, %; compound at 20 µM; confirmation repeats;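 mean of two retest wells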
MT1-MMP act inh RFP: also measured in MT1-MMP act inh; calls as there; RFP signal change, %; measured here: RFP expression control read;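 0 = vehicle wells; hits needed this value within 50% of zero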
Numbers without * were called inactive; i = inactive; ? = inconclusive; . = no result given. A portion of the library, so the mix of outcomes need not match the whole.

SMILES	MT1-MMP act inh	MT1-MMP act inh RFP	Yeast UUG start	Rce1 inh	HIV Env fusion	CSC inhib	eIF4H FP inh	PABP FP inh	others
CCN1CCc2c(sc(NC(=O)COc3ccccc3)c2C(=O)OC)C1	-1.2	-2.5	4.3	i	-16.6	-8.1	1.9	3.5
O=C(c1cc(-c2ccccn2)nc2c(Cl)cccc12)N1CCN(S(=O)(=O)c2ccccc2)CC1	-6.3	-5.9	.	i	-3.1	-17.8	1.8	19.2
O=C(C1CCCN1S(=O)(=O)c1ccc(Cl)c(Cl)c1)N1CCCCC1 (centres undefined)	-1.0	-1.1	-7.1	i	.	5.2	-0.6	7.6
Cc1ccc2cc(CN(c3cccc(C)c3C)S(=O)(=O)c3ccccc3)c(=O)[nH]c2c1	0.7	-3.4	-21.0	i	-6.4	-3.5	-16.8	6.1
CC(Oc1ccccc1F)c1ccnc2nc(/N=C/N(C)C)nn12 (centres undefined)	5.0	3.9	.	i	-15.2	-8.8	6.7	69.7	eIF4H FP inh retest=-1.8;PABP FP inh retest=9.1
O=C(COC(=O)Cc1ccc(Br)cc1)Nc1ccc(Cl)cn1	3.0	4.4	-11.9	.	-5.7	2.7	.	.
CC(C)=C(NC(=O)c1ccccc1)C(=O)NCCc1nc2ccccc2[nH]1	4.6	4.9	-7.6	i	-15.4	-9.3	.	.
CCC(=O)c1c[nH]c(C(=O)NCc2ccccc2OC)c1	-0.2	1.0	-3.2	i	-10.3	-7.9	-3.7	4.7
COc1ccc(C2CC(c3ccccc3Cl)=NN2c2ccc(S(N)(=O)=O)cc2)cc1 (centres undefined)	-2.8	2.8	-4.6	.	8.2	.	.	.
O=C1C2CCCCC2C(=O)N1c1cccc(OS(=O)(=O)c2ccccc2)c1 (centres undefined)	-1.9	1.2	-10.2	i	39.2	.	-5.3	-0.4
Cn1c(SCC(=O)NC(=O)NCc2ccco2)nnc1C(F)(F)F	6.2	4.6	.	i	.	-3.8	-0.8	1.2
CC(C)c1ccc(S(=O)(=O)N2CCN(C(=O)CCc3nc4ccccc4c(=O)[nH]3)CC2)cc1	-2.5	0.0	21.0	.	-21.5	.	.	.

Pulled by structure from above (two):
SMILES	MT1-MMP act inh	MT1-MMP act inh RFP	Yeast UUG start	Rce1 inh	HIV Env fusion	CSC inhib	eIF4H FP inh	PABP FP inh	others
CC(Oc1ccccc1F)c1ccnc2nc(/N=C/N(C)C)nn12 (centres undefined)	5.0	3.9	.	i	-15.2	-8.8	6.7	69.7	eIF4H FP inh retest=-1.8;PABP FP inh retest=9.1
Cc1ccc2cc(CN(c3cccc(C)c3C)S(=O)(=O)c3ccccc3)c(=O)[nH]c2c1	0.7	-3.4	-21.0	i	-6.4	-3.5	-16.8	6.1

No new results follow: an excerpt of the list.
SMILES	MT1-MMP act inh	MT1-MMP act inh RFP	Yeast UUG start	Rce1 inh	HIV Env fusion	CSC inhib	eIF4H FP inh	PABP FP inh	others
O=C(c1cc(-c2ccccn2)nc2c(Cl)cccc12)N1CCN(S(=O)(=O)c2ccccc2)CC1	-6.3	-5.9	.	i	-3.1	-17.8	1.8	19.2
O=C(C1CCCN1S(=O)(=O)c1ccc(Cl)c(Cl)c1)N1CCCCC1 (centres undefined)	-1.0	-1.1	-7.1	i	.	5.2	-0.6	7.6
Cc1ccc2cc(CN(c3cccc(C)c3C)S(=O)(=O)c3ccccc3)c(=O)[nH]c2c1	0.7	-3.4	-21.0	i	-6.4	-3.5	-16.8	6.1
CC(Oc1ccccc1F)c1ccnc2nc(/N=C/N(C)C)nn12 (centres undefined)	5.0	3.9	.	i	-15.2	-8.8	6.7	69.7	eIF4H FP inh retest=-1.8;PABP FP inh retest=9.1

New compounds follow
SMILES	MT1-MMP act inh	MT1-MMP act inh RFP	Yeast UUG start	Rce1 inh	HIV Env fusion	CSC inhib	eIF4H FP inh	PABP FP inh	others
CCNc1nc(SCC(=O)OC)nc(N2CCOCC2)n1	0.4	2.6	-6.3	i	-12.1	-10.9	0.4	-5.4
O=C(CSc1nccc(=O)[nH]1)Nc1ccc(N2CCOCC2)cc1	-4.0	-1.2	-12.6	i	2.9	-15.6	6.2	-1.0
Cc1ccc(S(=O)(=O)CCC(=O)OCCOc2cccc(Br)c2)cc1	2.7	-0.4	-14.1	.	.	-11.6	.	.
CCOc1ccc(OCCOc2ncnc3ccccc23)cc1	-0.2	-6.8	-15.4	i	.	6.9	3.0	6.3
Nc1cccnc1Sc1cc(Cl)c(Cl)cc1Cl	-1.2	8.6	-5.3	i	-12.5	3.3	0.5	3.1
N#Cc1ccc(NC(=S)NC(=O)C2CC2)cc1	-8.1	0.5	-28.1	.	-1.6	.	.	.
CC1(C)C=Cc2cc(-c3coc4cc(O)cc(O)c4c3=O)cc(O)c2O1	-0.9	1.6	-10.0	i	.	-7.1	.	.
COc1ccc(O[C@H]2C=C[C@@H](c3ccccc3)O[C@@H]2CO/N=C/C[C@@H]2C=C[C@H](OC(C)=O)[C@@H](COC(C)=O)O2)cc1	.	.	.	i	.	-13.7	-13.8	3.9
COc1ccccc1-n1c(SC(C)C(=O)NCC2CCCO2)nc2cc(Cl)ccc2c1=O (centres undefined)	-0.7	-3.6	.	i	1.7	-7.2	.	.
S=c1[nH]nc(-c2ccc(Cl)cc2)n1-c1cccnc1	-0.3	0.4	.	i	10.8	0.5	-7.0	-4.8
COc1cc(C(C(=O)NCC2CCCO2)N(C(=O)Cn2nnc3ccccc32)c2ccc(C(C)=O)cc2)ccc1O (centres undefined)	-0.7	0.5	-6.8	i	-1.0	-7.1	16.2	-5.9
O=C(N/N=C/c1cn(-c2ccccc2)nc1-c1ccc(F)cc1)c1ccc2c(c1)OCO2	2.3	-2.7	.	i	.	31.3	-2.9	-4.5

Three entries from above, arranged by formula weight, largest number first:
SMILES	MT1-MMP act inh	MT1-MMP act inh RFP	Yeast UUG start	Rce1 inh	HIV Env fusion	CSC inhib	eIF4H FP inh	PABP FP inh	others
COc1ccc(O[C@H]2C=C[C@@H](c3ccccc3)O[C@@H]2CO/N=C/C[C@@H]2C=C[C@H](OC(C)=O)[C@@H](COC(C)=O)O2)cc1	.	.	.	i	.	-13.7	-13.8	3.9
COc1ccccc1-n1c(SC(C)C(=O)NCC2CCCO2)nc2cc(Cl)ccc2c1=O (centres undefined)	-0.7	-3.6	.	i	1.7	-7.2	.	.
CCOc1ccc(OCCOc2ncnc3ccccc23)cc1	-0.2	-6.8	-15.4	i	.	6.9	3.0	6.3

Next records follow.
SMILES	MT1-MMP act inh	MT1-MMP act inh RFP	Yeast UUG start	Rce1 inh	HIV Env fusion	CSC inhib	eIF4H FP inh	PABP FP inh	others
Cn1nnnc1NCc1c(F)cccc1Cl	-1.9	3.0	-5.8	i	.	.	-4.4	3.0
COc1ccc(S(=O)(=O)NCc2csc(C)n2)cc1	0.2	3.6	.	i	.	-3.6	-0.4	-3.1
COc1ccc(NC(=O)CC(CC(=O)O)c2cc(OC)c(OC)c(OC)c2)cc1 (centres undefined)	0.3	1.3	-0.4	i	9.5	-9.4	-8.3	-4.0
CCC(C)NC(=O)CSc1c2c(nc3ccccc13)CCCC2 (centres undefined)	3.3	2.0	-27.5	i	9.1	-9.8	7.5	-2.3
CC(=O)Nc1ccc(N2C(=O)c3ccc(C(=O)Nc4nnc(SCc5ccc(F)cc5)s4)cc3C2=O)cc1	6.0	6.2	.	i	18.9	-7.7	-3.9	-7.9
Cc1ccccc1C(=O)N1CCC(C(=O)Nc2ccc3c(c2)OCO3)CC1	1.9	3.3	2.4	i	0.3	-8.1	-5.3	-2.1
CN1CCC(CNC(=O)Nc2ccccc2)(c2ccccc2)CC1	-2.8	0.5	-5.4	i	-10.7	-12.5	2.6	4.4
C=CSc1sc(Cl)c(N2CCOCC2)c1[N+](=O)[O-]	-7.0	-11.6	.	i	7.5	-3.5	-1.5	4.0
COCCCn1c(=O)/c(=C\c2ccccc2OC(F)F)s/c1=C(/C#N)C(=O)NC(C)C	-96.0	4.1	.	i	-22.7	1.1	?	4.4
O=C(CSc1nc(C2CC2)nc2ccccc12)Nc1ccccc1	-1.8	-4.1	-27.8	i	15.7	9.9	-2.2	15.8
CCc1cccc(C)c1NC(=O)CCCN1C(=O)NC(C)(C)C1=O	2.5	-0.2	-4.9	.	.	4.5	.	.

Gathered by group: those above with a thiophene ring, fused or not (2)
SMILES	MT1-MMP act inh	MT1-MMP act inh RFP	Yeast UUG start	Rce1 inh	HIV Env fusion	CSC inhib	eIF4H FP inh	PABP FP inh	others
CCN1CCc2c(sc(NC(=O)COc3ccccc3)c2C(=O)OC)C1	-1.2	-2.5	4.3	i	-16.6	-8.1	1.9	3.5
C=CSc1sc(Cl)c(N2CCOCC2)c1[N+](=O)[O-]	-7.0	-11.6	.	i	7.5	-3.5	-1.5	4.0
